# Bioassay records deposited in PubChem BioAssay by National Center for Advancing Translational Sciences (NCATS).
# CtBP-E1A blk: qHTS Assay for Inhibitors of the CtBP/E1A Interaction; CtBP / adenovirus E1A interaction (AlphaScreen); AlphaScreen GST-E1A/His-CtBP binding, 1536-well; active compounds read low; control for the full effect not named in the record; hit rate 0.49% among 340,000; AID 651724, 2012; activity change, % (no concentration beside the values); in the data active means activity change below about -65%; inconclusive means about -30% to -65%; inactive means above about -30%; further: on the % scale 0 is the no-effect control and ±100 the full control effect
#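 AlphaScreen with 125 nM GST-E1A and 125 nM His-CtBP (5X stocks) in Tris pH 8.0, 300 mM NaCl, BSA, Tween 20, TCEP. Compounds preincubated 2 h at 37 deg C, then glutathione donor/nickel acceptor beads added for 1 h at 37 deg C in dark.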
# Sfp inh: qHTS Assay for Inhibitors of Bacillus subtilis Sfp phosphopantetheinyl transferase (PPTase). Biochemical Sfp PPTase activity, qHTS. Potency, µM, without a hit: max response, negative = inhibition, actives largely listed as inhibitors. hit rate 3.5% among 310,000; active means well fitted inhibition curve with a large enough effect; inconclusive means small, poorly fitted or top-dose-only effect, or another doubt; inactive means no such curve, though single readings can be large or run the other way;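 further: the enzyme is Sfp with the accession as filed and its product quenches rhodamine fluorescence; potency means the concentration at half of the fitted maximal effect; 0% = enzyme reaction without inhibitor and -100% = no enzyme wells; top concentration of the series not given in the record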
#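 Sfp 15 nM + cpd, 15 min RT; start w/ rhodamine-CoA 5 uM, BHQ-2-YbbR 12.5 uM (final); 50 mM Hepes pH 7.6, 10 mM MgCl2, 0.01% NP-40, 0.01% BSA; read 525/598 nm at 0 and 30 min.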
# D2 potentiator: Beta-Arrestin HTS for Positive Allosteric Modulators of the Human D2 Dopamine Receptor: Potentiators | D(2) dopamine receptor (Homo sapiens), P14416 | DiscoveRx D2 beta-arrestin cells, luminescence, 90 min; 100% = 57 uM dopamine signal | potentiation, % (concentration not given with the values) | hit rate 0.23% among 360,000 | AID 624464, 2012; active = potentiation of 50% or more; inconclusive = 30% to 50%; inactive = 30% or less;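 further: compound concentration not given in the record; tested on top of an EC20 dose of dopamine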
# Target sequence (P14416 whole entry, looked up): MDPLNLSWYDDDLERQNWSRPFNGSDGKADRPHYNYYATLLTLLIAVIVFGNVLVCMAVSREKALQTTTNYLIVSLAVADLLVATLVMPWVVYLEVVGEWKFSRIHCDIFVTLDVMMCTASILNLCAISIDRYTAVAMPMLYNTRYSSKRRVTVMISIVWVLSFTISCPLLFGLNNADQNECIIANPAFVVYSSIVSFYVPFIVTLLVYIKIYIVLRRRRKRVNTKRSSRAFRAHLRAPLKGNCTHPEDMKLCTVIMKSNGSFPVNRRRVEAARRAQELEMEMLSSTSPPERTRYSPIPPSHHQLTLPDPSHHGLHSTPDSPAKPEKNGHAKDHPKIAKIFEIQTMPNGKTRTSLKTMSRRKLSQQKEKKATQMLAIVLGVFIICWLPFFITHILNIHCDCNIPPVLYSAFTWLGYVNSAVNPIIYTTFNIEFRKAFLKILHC
#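 PathHunter beta-arrestin assay in DiscoveRx D2 cells. Compounds were added with an EC20 of dopamine (50 nM final) for 90 min at 37 deg C. Luminescence was read 1 h after detection reagent, with 57 uM dopamine as the EC100 control.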
# Six1-Eya2 blk: qHTS Assay for Inhibitors of the Six1/Eya2 Interaction; activity change, % (test concentration not listed); AlphaScreen GST-Six1/His-Eya2 binding, biochemical; active compounds read low; control for the full effect not named in the record; AID 651725, 2012; hit rate 0.56% among 360,000; Homeobox protein SIX1 (Homo sapiens) + Protein phosphatase EYA2 (Homo sapiens), …; in the data active = activity change below about -65%; inconclusive = about -30% to -65%; inactive = above about -30%; further: on the % scale 0 is the no-effect control and ±100 the full control effect
#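 AlphaScreen with GST-Six1 and His-Eya2 (5X mix: 250 nM and 500 nM), glutathione donor and nickel acceptor beads; buffer 50 mM Tris pH 8.0, 300 mM NaCl, 1 mM TCEP; 1 h at 37 C in the dark.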
# TRPV1 PAM: HTS Assay for Compounds that Act as Potentiators of the Vanilloid Receptor 1; TRPV1-expressing cells, Fluo-8 calcium influx, capsaicin EC20 potentiation; host cell line not named in the record; control for the full effect not named in the record; potentiation, % at 8.33 µM; hit rate 0.02% among 320,000; active means potentiation above 80%; inconclusive means 30% to 80%; inactive means below 30%; further: 0% is about no effect
#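 TRPV1-expressing cells were cultured overnight at 35.5C and loaded with Fluo-8 calcium dye for 40 to 90 min at room temperature. After a 10 s baseline, compound was added and calcium influx was read kinetically for 3 min (ex 480/em 520 nm).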
# D2 ag: Beta-Arrestin HTS for Positive Allosteric Modulators of the Human D2 Dopamine Receptor: Agonists; D(2) dopamine receptor (Homo sapiens), P14416; DiscoveRx PathHunter D2 beta-arrestin, luminescence, 90 min; 100% = 57 uM dopamine signal; activation, % (no concentration beside the values); hit rate 0.084% among 360,000; AID 624465, 2012; in the data active = activation above about 40%; inconclusive = about 15% to 40%; inactive = below about 15%; further: compound concentration not given in the record; the text of the record calls up to 30% inactive
#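 DiscoveRx PathHunter D2 beta-arrestin cells (2,100/well) attached overnight, then compound-stimulated 90 min at 37 C in HBSS/10 mM HEPES/0.1% Tween-20 buffer; beta-galactosidase complementation read by luminescence after 1 h at ambient temperature. Dopamine 57 uM final (EC100) as control.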
# PINK1 modulator: A Quantitative High throughput Screen to Identify Chemical Modulators of PINK1 Expression; hit rate 0.2% among 410,000; PINK1 immunofluorescence, high-content cytometry, 24 h; Potency, µM (top dose mostly 76.6 µM), for the others: at the highest dose activation (PINK1 increase), actives largely listed as activators; active = well fitted activation curve with a large enough effect; inconclusive = small, poorly fitted or top-dose-only effect; inactive = flat fitted curve, though single readings scatter; cell line not stated here;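 further: potency means the concentration at half of the fitted maximal effect; % of control where 0% means no effect; nearly all actives have a fitted effect of over 65% in size; a mitochondrial uncoupler was the plate control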
#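 Fluorescence from anti-PINK1 antibody, together with nuclear and cell stains, was scanned on a laser-scanning cytometer. Before staining, stable-line cells were incubated 24 hours with compounds at 5 concentrations; primary antibody 12 h at 10 degrees C.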
# Active calls of the source: *; u = inconclusive; x = not tested or not shown; & = joins results of further samples; [ ] = remark or other dose.
SMILES,CtBP-E1A blk,Sfp inh,D2 potentiator,Six1-Eya2 blk,TRPV1 PAM,D2 ag,PINK1 modulator
Cc1ccc2c(c1)C(N1CCCC1=O)CC(c1ccco1)N2 (stereo unspecified),-3,40µM*,-9,7,3,0.8,-0.8%
CCOc1ccccc1NC(=O)CCNS(=O)(=O)c1cccc2nonc12,-11,8%,-9,-5,-3,-4.8,0.7%&0.1%
COc1ccc(N2C(=O)C(CC(N)=O)N(NC(=O)c3cccc(OC)c3)C2=S)cc1 (stereo unspecified),-8,-4%,-7,2,u,-3.4,2.6%
CCOC(=O)C1(CCc2ccccc2)CCN(C(=O)c2cnc(C)cn2)CC1,2,13%,-8,2,-17,-2.3,-0.1%
COc1cc(C(C(=O)NCc2ccccc2)N(C(=O)c2snc(C(N)=O)c2N)C2CCCC2)cc(OC)c1OC (stereo unspecified),-2,11%,-4,-1,-3,-3.5,4.8%
COc1ccc(C(CCN2CCOCC2)c2c(OC)cc(OC)c3c(C)cc(=O)oc23)cc1 (stereo unspecified),5,10%,-20,0,-18,1.7,0.2%
O=C(/C=C/c1ccccc1)NC(NC(=S)Nc1ccc(Cl)cc1)C(Cl)(Cl)Cl (stereo unspecified),0,22%,26,-1,19,-1.8,u
CCC1=NN(C(=O)CCc2ccc3c(c2)OCO3)C(O)(C(F)(F)F)C1 (stereo unspecified),0,-14%,-5,2,10,1.8,1.7%
C=C1c2cccc(C(F)(F)F)c2O[C@H](C(=O)OCC)[C@H]1OC,1,x,x,0,x,-1.6,-0.5%
Cc1cc(C)cc(NC(=O)Nc2cccnc2)c1,-5,-9%,-22,-8,-11,u,0.6%

# In the list so far, 3 have a halogen.
SMILES,CtBP-E1A blk,Sfp inh,D2 potentiator,Six1-Eya2 blk,TRPV1 PAM,D2 ag,PINK1 modulator
O=C(/C=C/c1ccccc1)NC(NC(=S)Nc1ccc(Cl)cc1)C(Cl)(Cl)Cl (stereo unspecified),0,22%,26,-1,19,-1.8,u
CCC1=NN(C(=O)CCc2ccc3c(c2)OCO3)C(O)(C(F)(F)F)C1 (stereo unspecified),0,-14%,-5,2,10,1.8,1.7%
C=C1c2cccc(C(F)(F)F)c2O[C@H](C(=O)OCC)[C@H]1OC,1,x,x,0,x,-1.6,-0.5%

# (cont.)
SMILES,CtBP-E1A blk,Sfp inh,D2 potentiator,Six1-Eya2 blk,TRPV1 PAM,D2 ag,PINK1 modulator
O=C(Cc1ccc([N+](=O)[O-])cc1)c1ccccc1,2,x,-2,-10,x,5.0,3.8%
O=C1CCCc2ccccc2N1Cc1cccc(Cl)c1,7,7%,8,6,7,3.1,2.3%
CC(=O)Nc1sc2c(c1C#N)CCC(C)C2 (stereo unspecified),-4,2%,-7,-4,-5,-0.7,-1.4%
Nn1c(SCC(=O)Nc2ccc3c(c2)OCO3)nnc1-c1ccncc1,-3,-4%,8,1,-3,1.9,2.6%
CN(CC(=O)Nc1cccc2c1CCCC2)S(=O)(=O)c1ccccc1,-4,4%,10,1,-4,-1.9,14%[38.3 µM]
O=S(=O)(Nc1ccc2c(c1)CCC2)c1cccs1,-1,0%,-16,-1,-5,-2.7,4.6%[38.3 µM]
O=C(NC1CCCCC1)N1CCCC(c2nc(-c3ccc(S(=O)(=O)N4CCCC4)cc3)no2)C1 (stereo unspecified),7,9%,-4,8,5,-0.7,12%
C[C@@]12C(=O)N(CC3CCCO3)CC(=O)N1[C@H]1c3ccccc3OC[C@@H]1[C@@H]2c1ccccc1 (stereo partly specified),7,x,-15,0,-23,-3.0,0.2%
S=C(NCCN1CCOCC1)Nc1ccc(Cl)c(Cl)c1,10,8%,-20,7,12,0.5,-0.5%
CCOC(=O)c1cnn(CC2CCCCC2)c1N,-1,-2%,-12,-5,-6,-0.2,-3.3%
COn1c(-c2ccccc2)c(C=O)c2ccccc21,7,-6%,-4,5,-9,1.5,-0.9%
COc1ccc(NC(=O)N(CCCN2CCOCC2)Cc2cccnc2)c(OC)c1,3,x,-7,6,x,-0.5,0.3%
O=C(CSc1ccc(-c2ccccn2)nn1)NC1CCCCC1,-72*,-27%,1,-90*,19,-0.6,0.5%
NNC(=O)C1CCCN1S(=O)(=O)c1ccc(Cl)cc1 (stereo unspecified),6,8%,-8,5,-3,-4.7,-0.5%
CC(C)OCCCn1c(=S)[nH]c2cc3c(cc2c1=O)OCO3,6,6%,16,-3,0,1.2,1.2%
O=C(CC12CC3CC(CC(C3)C1)C2)N/N=C/c1ccncc1,-7,9%,-14,-7,-19,-2.8,1.5%
Cc1ccc(S(=O)(=O)CNC(=O)c2ccccc2)cc1,-1,10%,-15,2,-3,-0.9,0.2%
Cc1ccc(NC(=O)c2c(C)noc2C)cc1,9,14%,17,6,4,-7.9,-1.7%
Cc1cc2cc3n(c2nn1)N=C(Cl)CC3,-17,x,-12,2,x,-3.3,-1.4%
CCOc1ccccc1NC(=O)c1cc(S(=O)(=O)NCc2ccco2)ccc1F,x,-4%,-7,15,13,1.1,-1.0%
COCCn1c(Cc2ccccc2)nnc1SCC(=O)Nc1oc(C)c2c(C)n[nH]c(=O)c12,5,x,-16,7,3,-4.2,2.5%
Cc1ccc(CNC(=O)c2ccc([N+](=O)[O-])o2)cc1,2,16%,56*,-1,-15,-14,5.9%
CC(C)(C)OC(=O)C[C@H]1C/C=C\C[C@@H](CC(=O)NCCO)C(=O)N2CCC[C@H]2COC1=O,8,x,-10,4,x,-1.7,0.8%
CCCCn1c(SCC(=O)c2ccc3c(c2)OCCO3)nnc1-c1ccco1,-10,50µM*,3,-11,2,-2.2,1.1%
COC(=O)c1sccc1NC(=O)c1cccc(F)c1,21,x,-1,16,x,2.3,-1.2%
COC(=O)c1ccc(N2CCN(CC(=O)c3ccc(-c4ccccc4)cc3)CC2)c([N+](=O)[O-])c1,-7,u,2,-7,-4,-1.4,-1.6%
CCOC(=O)c1ccc(NC(=S)NCCCn2ccnc2)cc1,0,4%,-8,-14,-7,-0.4,-1.3%
CCCCN(CC)S(=O)(=O)c1ccc(C(=O)Nc2nnc(CSC)o2)cc1,-19,18%,4,-9,25,1.2,-1.2%
CC(C)CSC1=NSC2=NC(=O)/C(=C\c3coc4ccccc4c3=O)C(=N)N12,-5,-20%,6,4,6,5.0,u
CC(=O)n1cc([C@H]2C=C(C(=O)O)O[C@@H](OCCCCO)C2)c2ccccc21,x,24%,-11,u,17,0.0,2.3%
O=C(O)c1ccc2c(c1)C(=O)N(c1ccccc1-c1ccccc1)C2=O,6,19%,-3,6,12,-3.5,0.0%
Cc1ccc(C(=O)N2CCN(c3ccc(F)cc3)CC2)cc1S(=O)(=O)N1CCCCC1,12,4%,-9,-8,-20,-2.7,u
CC(C)=CC(=O)Nc1ccc(S(=O)(=O)Nc2onc(C)c2C)cc1,4,-1%,-2,1,1,4.6,-0.7%
O=c1[nH][nH]cc1C=Nc1ccc(Cl)cc1Cl,0,11%,0,10,-5,-0.4,1.2%
Cc1cc(C)c2c(c1)SC1=NC(c3ccccc3)(C(F)(F)F)NC(=O)N12 (stereo unspecified),-23,18%,4,-6,u,-1.3,1.0%
O=C(NC(NNc1ccc([N+](=O)[O-])cc1)(C(F)(F)F)C(F)(F)F)c1ccc(F)cc1,1,-6%,61*,-15,-19,14,45µM*
Cc1ccc(N2CC(=O)N(NC(=O)Nc3ccc(Cl)c(Cl)c3)CC2=O)cc1,-14,9%,-7,-1,-2,-4.7,6.6%
COc1ccc(N2CCN(C(=O)[C@H](C)N3C(=O)C4CC=CCC4C3=O)CC2)cc1 (stereo partly specified),1,x,-7,-1,x,-1.8,-1.6%
COc1ccccc1N(C(=O)CNC(=O)c1ccco1)C(C(=O)NCC1CCCO1)c1ccccc1 (stereo unspecified),7,10%,-2,-2,-4,-0.1,0.5%
CC1(C)CC(N2CCC(=O)NC2=S)CC(C)(C)N1,-1,x,-5,7,x,-2.3,0.7%
CNC(=O)C(=O)Nc1c(O)c2ccccc2[nH]c1=O,2,22µM*,-6,-2,-5,-1.4,-1.2%
CC1(C)C2CC=C(/C=N/NC(=O)c3ccccc3Br)C1C2 (stereo unspecified),x,15%,-8,5,8,-0.6,8.9%
O=C(NCC(c1cccs1)N1CCOCC1)c1cc(=O)[nH]c2ccccc12 (stereo unspecified),-4,x,-1,0,3,-4.8,1.2%
O=C1C2C3C=CC(C3)C2C(=O)N1c1n[nH]c(CCc2ccccc2)n1 (stereo unspecified),-1,17%,-8,-1,-3,0.7,u
CCOC(=O)CSc1ccc2nnc(-c3cccs3)n2n1,-12,-5%,-4,-28,0,-4.5,1.5%
Cc1ccccc1NC(=O)CSCCN1C(=O)c2ccccc2C1=O,0,0%,-4,9,-17,0.4,0.7%
O=C(/C=C/c1ccc(Cl)cc1)NC(=S)Nc1ccccc1C(=O)O,u,-7%,-7,-6,25,-1.3,0.8%
CCn1ncc(Cl)c1C(=O)NC(C)c1ccccc1 (stereo unspecified),0,3%,3,-2,7,0.8,-3.7%[38.3 µM]
COc1ccc(/C=N\NC(=O)COc2ccccc2)c(C(=O)O)c1OC,0,7%,-8,1,13,0.0,0.1%
COc1ccc2nc(N/C(N)=N/C(=S)Nc3cccc(C)c3)nc(C)c2c1,-27,-1%,2,-6,-38,-4.9,6.2%
# (listing goes on)
SMILES,CtBP-E1A blk,Sfp inh,D2 potentiator,Six1-Eya2 blk,TRPV1 PAM,D2 ag,PINK1 modulator
O=C(/C=C/c1cccc([N+](=O)[O-])c1)OCC(=O)N1CCN(C(=O)c2ccco2)CC1,0,x,-2,-18,x,3.2,-0.7%
c1ccc2c(c1)Oc1ccccc1S2,9,x,-2,5,-3,3.0,4.3%
Cc1ccc(C(OCC(O)CNC(C)c2ccccc2)c2ccccc2)cc1 (stereo unspecified),0,-23%,-18,-3,-1,-5.0,-1.7%
COC(=O)C1C(=O)C2=C(CC1C)NC(=O)CC2c1ccc(O)c(OC)c1 (stereo unspecified),0,19%,-9,9,-3,0.9,2.4%
